Screening data as filed in PubChem.
E coli growth = E. coli growth inhibition. Escherichia coli growth, OD600, 23 h; active compounds read low. OD600 absorbance (no concentration beside the values). 0.21% of 330,000 active;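 active means OD600 absorbance below the run mean of sample wells minus 3.6 SD, in any replicate, cut at about 0.56 in these data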;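 further: stock transfer was 300 nL into about 60 µL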
Vif A3G = inhibitors of Vif binding to APOBEC3G peptide, primary screen, biochemical, TR-FRET, GST-Vif 1-94, biotin-A3G peptide, dose response retest (AID 1117319). 0.57% of 260,000 active. TR-FRET GST-Vif / biotin-A3G peptide binding; higher % means a stronger effect; test concentration not given here; strong numbers were not always called active. inhibition, %, or IC50 in µM where a hit was titrated;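 active means above the screen mean plus three standard deviations and confirmed in dose response; inconclusive means results disagree or hit not tested in dose response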;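 further: Vif residues 1-94 fused to GST binding biotinylated APOBEC3G peptide 110-148; 0% = full assay without inhibitor and 100% = GST in place of GST-Vif; retest series ran down from 100 µM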
UCH37 DUB inh = human UCH37 deubiquitinating enzyme inhibition | Q9Y5K5 | purified proteasome/UCH37, Ub-AMC cleavage fluorescence | inhibition, % (no concentration beside the values) | 0.33% of 330,000 active | AID 588478;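 active means mean of two replicates above 20%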;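 further: 0% = compound-free wells with enzyme and 100% = wells lacking proteasome; stock transfer was 100 nL into about 20 µL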
Target sequence (Q9Y5K5 whole entry, looked up): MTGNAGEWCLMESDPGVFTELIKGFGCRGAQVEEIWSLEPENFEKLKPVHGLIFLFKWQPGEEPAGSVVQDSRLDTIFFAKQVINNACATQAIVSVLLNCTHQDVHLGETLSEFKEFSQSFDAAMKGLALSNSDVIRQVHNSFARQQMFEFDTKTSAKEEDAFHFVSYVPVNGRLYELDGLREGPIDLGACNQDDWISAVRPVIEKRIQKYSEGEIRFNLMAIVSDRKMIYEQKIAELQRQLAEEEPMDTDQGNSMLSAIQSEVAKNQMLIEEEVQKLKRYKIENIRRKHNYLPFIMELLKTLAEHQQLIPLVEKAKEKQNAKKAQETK
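assay system = human UCH37 enzyme supplied as purified proteasome complex | amount = proteasome at 0.15 nM in the dispensed enzyme solution | schedule = 30 min compound-proteasome preincubation then 25 min substrate reaction, room temperature | measured by = fluorescence, ex 355 nm, em 460 nm | benchmarks = no-proteasome wells (full inhibition) and compound-free wells (no inhibition)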
AF4-AF9 inh = MLL-AF4/AF9 protein interaction inhibition; inhibition, % at 10 µM; AlphaScreen, biotin-AF4 peptide binding to FLAG-AF9; AID 651704; 0.47% of 350,000 active; P42568;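 active means every replicate reaching a set inhibition limit, whatever the replicate mean, cut at about 25% in these data; inconclusive means mean inhibition reaches that limit but some replicates miss it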;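 further: 0% = plate neutral control median and 100% = total signal loss; the record names both 10 and 1 µM as test concentration; the first replicate is given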
Target sequence (P42568 whole entry, looked up): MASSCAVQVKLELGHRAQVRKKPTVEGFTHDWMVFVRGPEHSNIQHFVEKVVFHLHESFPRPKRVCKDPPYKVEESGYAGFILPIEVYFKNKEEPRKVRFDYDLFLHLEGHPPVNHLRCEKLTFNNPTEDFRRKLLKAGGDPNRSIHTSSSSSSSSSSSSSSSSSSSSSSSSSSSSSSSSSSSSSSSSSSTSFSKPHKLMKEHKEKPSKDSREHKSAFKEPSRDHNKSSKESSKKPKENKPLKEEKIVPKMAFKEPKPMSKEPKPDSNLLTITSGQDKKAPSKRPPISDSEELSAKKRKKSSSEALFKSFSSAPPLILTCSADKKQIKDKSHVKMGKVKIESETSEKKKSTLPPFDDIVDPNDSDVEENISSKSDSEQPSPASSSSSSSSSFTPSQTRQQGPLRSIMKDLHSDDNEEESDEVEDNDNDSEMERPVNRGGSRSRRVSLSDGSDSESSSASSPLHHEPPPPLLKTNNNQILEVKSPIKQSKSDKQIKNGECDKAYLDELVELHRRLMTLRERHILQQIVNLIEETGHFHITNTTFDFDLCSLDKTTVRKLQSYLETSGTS
FGF22 binding = FGF22 (human) thermal shift binding; AID 651658; calls only at 9.99 µM; Q9HCT0; recombinant FGF22 thermal shift, SYPRO orange fluorescence; percent of sucrose octasulfate shift, DMSO zero; 1.5% of 340,000 active;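 active means melting point raised past a set limit in the mean and every replicate; inconclusive means no clear call; three in four hits are not shown here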
Target sequence (Q9HCT0 whole entry, looked up): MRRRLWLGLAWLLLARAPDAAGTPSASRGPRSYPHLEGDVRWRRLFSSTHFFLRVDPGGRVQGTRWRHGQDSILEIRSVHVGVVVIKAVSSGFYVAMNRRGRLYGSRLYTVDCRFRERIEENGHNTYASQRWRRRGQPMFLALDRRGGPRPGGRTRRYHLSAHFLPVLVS
HNF4A DNA FP = change in binding of human HNF4 alpha to DNA; HNF4a-FITC DNA binding, fluorescence polarization, 1 h; P41235; 0.3% of 360,000 active; activity change, % at 10 µM; AID 1224865; in the data active means activity change above about 30%, passing the limit was not always enough;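 further: controls were the assay level and a saturating level of protein; the project sought stronger binding though the title names inhibitors; some compounds called inactive have numbers as strong as hits; positive values seem to mean higher polarization but the record does not say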
RanGTP-Imp inh = inhibitors of RanGTP-importin-beta interaction, primary screen, biochemical, FRET, CFP-Ran, YFP-importin-beta, homogeneous; cell-free CFP-Ran/YFP-importin-beta FRET ratio; inhibition, % (no concentration beside the values); 1.1% of 300,000 active;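 active means most replicates above 15%; inconclusive means exactly half above 15%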;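 further: 0% = DMSO wells and 100% = Ran loaded with GDP instead of GTP; wells of about 40 µL received 100 nL stock; the first replicate is given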
Active calls of the source: *; i = inactive; ? = inconclusive; · = no result given; & = joins results of further samples. Only part of the results is shown, so the mix of outcomes need not match the whole.

SMILES	E coli growth	Vif A3G	UCH37 DUB inh	AF4-AF9 inh	FGF22 binding	HNF4A DNA FP	RanGTP-Imp inh
COc1cccc(C(=O)Nc2cccc(C(C)=O)c2)c1	0.673	·	-0.3	-2.0	i	0.9	0.3
COc1ccccc1NC(=O)/C=C/c1ccc(OC)c(S(=O)(=O)N2CCOCC2)c1	0.741	·	5.0	2.8	i	-1.0	-0.7
CC(C)C(=O)N1CCC2(CC1)Oc1ccc(F)cc1C(=O)C21CC(c2cccnc2)=NO1 (stereo not given)	0.699	-3.4%	2.8	·	·	·	?
CCOc1ccc(Oc2ccc(C(F)(F)F)cc2NC(=O)C2=COCCO2)cc1	0.71	-7.4%	3.4	1.5	i	-1.0	·
O=C(CSc1nc(-c2ccccc2)nc2ccc(F)cc12)Nc1cccc(C(=O)O)c1	0.647	4.5%	9.9	6.6	·	-4.4	0.3
COc1ccccc1N1CCN(C(=O)C2CCC(CNS(=O)(=O)c3ccc(NC(C)=O)cc3)CC2)CC1 (stereo not given)	0.673	-1.1%	3.6	1.3	i	1.3	1.7
CCCCn1c(N)c(N(CCOC)C(=O)c2ccc(C)c(S(=O)(=O)N3CCOCC3)c2)c(=O)[nH]c1=O	·	·	·	-1.4	i	3.4	5.7
CCOc1ccc(Cl)cc1S(=O)(=O)N1CCC(C(=O)NCc2cccnc2)CC1	0.706	·	3.4	3.0	i	2.7	-0.4
N=C1C(c2ccccc2)=C(O)CN1c1cccc(S(=O)(=O)NCc2ccco2)c1	0.686	-5.7%	4.4	10.4	i	-0.8	-0.3
Cc1ccc(C)c2c1sc(=NC(=O)CN1C(=O)CCC1=O)n2C	0.743	-25.1%	3.5	-1.7	i	-1.4	?
Cc1ccc2nc(-c3ccc(Br)o3)oc(=O)c2c1	0.706	28.3%	-18.7	·	·	0.1	-0.4
O=C(NCC1CC1)c1ccc(-c2cn[nH]c2)c2ccoc12	·	·	·	-7.2	i	-0.1	·
Cc1ccc(S(=O)(=O)N(C)C)cc1NC(=S)NC(C)CCC(C)C (stereo not given)	0.674	-0.2%	-1.0	·	·	3.0	1.4
CN(CC(=O)Nc1ccc(F)cc1)C(=O)c1cc(-c2ccco2)nc2ccccc12	0.625	5.48µM*	i	3.2	i	-19.3	-2.6
O=C(CCN1CCCCC1)Nc1ccc(Br)cc1	0.675	20.6%	0.2	·	·	2.8	-1.0
Cc1c(NC(=O)C(=O)/C=C(/O)c2ccccc2)c(=O)n(-c2ccccc2)n1C	·	·	·	-1.6	i	0.9	-2.0
CS(=O)(=O)N(CC(=O)NCc1ccncc1)c1cc(Cl)cc(Cl)c1	0.703	?	2.9	·	·	-1.1	-0.6
COc1cccc(N(CC(=O)NCC2CCCO2)C(=O)CCC(=O)Nc2nccs2)c1 (stereo not given)	0.707	-1.7%	3.1	-0.7	i	-2.6	1.0
O=C(CSC1=NC(=O)C(Cc2ccccc2)C(=O)N1)NC1CCCCC1 (stereo not given)	0.688	0.5%	3.9	·	·	3.6	1.1
Cc1ccc(NC(=O)CSc2nnc(CNC(=O)c3cccs3)o2)cc1	0.674	11.7%	1.1	-3.5	i	-1.2	-1.1
COc1ccc(C(=O)C2CCCN(C(=O)CCC3=NNC(=O)CC3)C2)c(C)c1 (stereo not given)	0.681	-0.2%	2.4	-0.2	·	-5.8	-3.5
COc1ccc(CCN(C)CC(O)COc2ccc(C(C)=O)cc2OC)cc1OC (stereo not given)	0.702	·	4.4	-1.7	i	-0.2	6.1
CCOC(=O)c1cc(C(=O)c2cc(Cl)ccc2O)coc1=N	0.677	1.9%	-52.6	-3.6	i	8.3	11.2
COc1cc(C(=O)NCCCn2ccnc2)cc(OC)c1OC	0.695	·	0.7	-5.3	i	-1.4	3.3
COc1ccc(N(Cc2cc3ccccc3[nH]c2=O)S(C)(=O)=O)cc1	0.706	17.9%	-0.5	·	·	3.4	-0.8

A draw from above in order of molar mass, rising:
SMILES	E coli growth	Vif A3G	UCH37 DUB inh	AF4-AF9 inh	FGF22 binding	HNF4A DNA FP	RanGTP-Imp inh
Cc1ccc(S(=O)(=O)N(C)C)cc1NC(=S)NC(C)CCC(C)C (stereo not given)	0.674	-0.2%	-1.0	·	·	3.0	1.4
N=C1C(c2ccccc2)=C(O)CN1c1cccc(S(=O)(=O)NCc2ccco2)c1	0.686	-5.7%	4.4	10.4	i	-0.8	-0.3
COc1ccc(CCN(C)CC(O)COc2ccc(C(C)=O)cc2OC)cc1OC (stereo not given)	0.702	·	4.4	-1.7	i	-0.2	6.1

Next section.
SMILES	E coli growth	Vif A3G	UCH37 DUB inh	AF4-AF9 inh	FGF22 binding	HNF4A DNA FP	RanGTP-Imp inh
COCC(=O)Nc1cc(Cl)ccc1C(F)(F)F	0.673	9.7%	3.3	·	·	·	3.7
Cc1ccc(-n2c(=O)[nH]c3c(C(N)=O)nc(C(C)C)nc32)cc1	0.683	4.5%	1.1	2.0	i	-4.2	-2.9
Cc1ccc(S(=O)(=O)N2CCCC(C(=O)N3CCN(C)CC3)C2)cc1 (stereo not given)	0.72	·	-2.3	-0.1	i	-2.9	-2.0
Cc1ccc(CSc2nnc(-c3ccccn3)n2N)cc1	0.65	-4.8%	4.8	-2.8	i	-2.7	1.3
COc1cc(NC(=O)C2CCCN2C(=O)C2CCC(C)CC2)cc(OC)c1OC (stereo not given)	0.725	0.1%	1.0	-2.2	i	5.1	0.4
Cc1ccc(S(=O)(=O)NCCCCCC(=O)N(C)C)cc1	0.699	?	1.8	·	·	7.4	4.3
Cc1cc(C)c(C(=O)N2CCCC(CNS(=O)(=O)c3cccs3)C2)o1 (stereo not given)	0.726	-0.3%	5.4	2.1	i	0.0	4.5
C=CCNC(=O)c1onc(CSc2ccc(F)cc2)c1C(=O)NCCOC	0.665	0.9%	7.2	-10.4	i	-1.4	3.7
COc1ccc(CNC(=O)c2ccc3nccnc3c2)cc1	0.684	16.6%	3.0	·	·	-1.0	-2.3
COc1ccccc1C(=O)N/C(=C\c1ccc(Br)cc1)C(=O)NCCO	0.725	2.0%	1.0	·	·	0.6	4.3
CC(C)(C)c1ccc(OCCC(=O)Nc2cccc(S(=O)(=O)N3CCCC3)c2)cc1	0.716	-3.4%	0.6	6.3	i	2.0	2.0
Cc1cc(-c2cc(NC=O)c3ncc(-c4cccc(C(=O)NCCN(C)C)c4)n3c2)cc(C)c1O	·	·	·	21.3	i	4.5	·
COCCn1nnnc1C(c1cc2cccc(C)c2[nH]c1=O)N1CCN(c2ccccc2F)CC1 (stereo not given)	0.792	5.5%&-4.5%	2.2	·	·	-3.5	1.0
CC(=O)c1cc2c(cc1NC(=O)CCc1ccccc1)OCO2	0.669	?	-25.0	·	·	4.3	3.9
CCOc1cccc2sc(=NC(=O)CCS(=O)(=O)c3ccc(F)cc3)n(C)c12	0.697	-34.9%	0.9	-3.9	i	-3.3	2.8
CCc1ccc([C@H]2[C@@H]3C(=O)C[C@@H]4C(=O)N(C5CCCCC5)C(=O)[C@@H]4[C@@H]3CN2S(=O)(=O)c2ccc(C)cc2)cc1	·	·	·	-2.9	i	-1.2	·
Cc1cc(NC(=O)c2ccc(S(=O)(=O)N(C)C)cc2)n(-c2ccccn2)n1	0.751	3.5%	0.7	·	·	-3.4	0.0
COc1ccc(CN2C(=O)c3cccc4cccc(c34)C2c2nc3ccccc3[nH]2)cc1 (stereo not given)	·	·	·	0.4	i	-9.1	·
O=C(NCCc1ccccc1)c1nc(CS(=O)(=O)c2ccc(Cl)cc2)no1	0.672	·	1.7	-0.7	i	0.8	?
CC1CCc2c(sc(NC(=O)c3c([N+](=O)[O-])cnn3C)c2C(N)=O)C1 (stereo not given)	0.716	·	1.9	-1.7	i	-1.6	·
Cc1ccc(-n2c(Cc3cccs3)nnc2SCC(=O)Nc2ccc(F)c(F)c2)cc1	0.733	-3.8%	4.3	-12.8	i	31.9	2.0
C=CCn1c(SCC(=O)N2CCOCC2)nc2ccccc2c1=O	0.682	·	6.3	3.0	i	-0.3	-1.8
Clc1cccc2sc(N3CCN(c4ccccc4)CC3)nc12	0.685	·	-0.9	3.9	i	1.1	?
O=C(CN1C(=O)CCS(=O)(=O)c2ccccc21)NCc1ccc2c(c1)OCO2	0.75	?	-2.6	·	·	-3.4	0.8
CN1C(=O)c2ccc(NC(=O)CSc3ccccc3)cc2C1=O	0.661	·	0.8	2.2	i	4.5	?
The listing continues.
SMILES	E coli growth	Vif A3G	UCH37 DUB inh	AF4-AF9 inh	FGF22 binding	HNF4A DNA FP	RanGTP-Imp inh
CCOC(=O)c1cc2c(C(F)(F)F)cc(-c3cccnc3)nc2o1	0.696	2.7%	0.5	·	·	0.2	-1.8
COC(CNC(=O)c1ccc2c(c1)ncn2-c1ccc(C)cc1C)OC	0.7	-2.4%	2.8	-0.5	i	-0.6	-1.8
Cn1c(O)c(/C=N/NC(=O)c2cc3ccccc3cc2O)c2ccccc21	·	·	·	3.0	i	61.8	-2.7
Cc1cnc([N+](=O)[O-])n1CCOC(=O)NC(=O)c1ccccc1Cl	0.712	-3.6%	6.2	-2.5	i	2.5	-0.8
COc1cc(/C=N/NS(=O)(=O)c2ccc(C)c([N+](=O)[O-])c2)cc([N+](=O)[O-])c1O	·	·	·	-21.2	i	-4.3	-2.2
CC(C)CCC(CC(C)O)C(=O)NNC(=S)Nc1ccccc1 (stereo not given)	0.671	5.3%	-0.3	-19.6	i	0.6	0.4
O=C1NC(c2ccc3c(c2)OCO3)Nc2ccccc21 (stereo not given)	0.691	6.6%	-251.8	·	·	-0.4	-4.6
COC(=O)[C@H]1[C@H](C(=O)OC)[C@@H](C(=O)OC)N(c2ccc(OC)cc2)[C@@H]1C(=O)OC	0.695	6.4%	4.0	·	·	136.3	0.6
COc1cc(OC)cc(C(=O)NCCCCc2ccccc2)c1	0.679	·	5.0	-1.6	i	1.6	-0.4
Cc1cccc(/C=N/n2c(C)nc3ccccc3c2=O)c1	·	-8.0%	·	2.6	i	-1.8	-3.7
Cc1cccc(NC(=S)NC(C)C(c2ccccc2)N2CCN(C)CC2)c1C (stereo not given)	0.706	-2.7%	5.7	-1.0	i	3.3	2.7
O=C(Nc1ccccc1)OCc1cc(-c2ccccc2Cl)on1	0.748	21.7%	-4.9	·	·	-0.4	-1.8
COc1ccc(-c2cc(C(=O)NC(C)c3ccccn3)c3ccccc3n2)cc1OC (stereo not given)	0.725	-1.2%	-7.6	-9.4	i	1.6	·
COc1ccc2[nH]c(C(=O)O)c(NS(=O)(=O)c3ccc(F)cc3)c2c1	0.675	·	-1.9	0.6	i	2.1	1.6
Cc1ccc(C(=O)OC(C)CN2CCN(C)CC2)cc1 (stereo not given)	0.666	7.7%	4.5	-1.8	i	0.6	-3.1
O=C(O)/C=C/c1ccc(OCCCF)cc1	0.626	1.5%	3.2	-1.1	·	3.1	2.8
CC(C)(C)c1ccc(CC(=O)N2CCC2(C)C(=O)NS(=O)(=O)c2ccc(Cl)cc2)cc1 (stereo not given)	·	·	·	-2.3	i	8.5	·
O=C(c1cc2cc(C(F)(F)F)ccc2s1)N1CCOCC1	0.71	-6.3%	0.4	-0.8	i	2.3	3.1
Cc1ccc(/C=N/NC(=O)c2c[nH]c3ccccc23)s1	·	3.3%	·	·	·	-1.9	-6.3
CC1CC(CCC(=O)NC(=S)Nc2ccc(S(N)(=O)=O)cc2)C(=O)O1 (stereo not given)	0.697	·	3.7	-2.5	i	1.0	-1.1
CC(=O)c1cc(C)c(OCc2cn(CC(=O)c3ccc(O)cc3)nn2)c(C)c1	·	·	·	-1.8	i	1.9	·
Cc1cccc(C)c1NC(=S)NNc1ncc(C(F)(F)F)cc1Cl	0.734	3.3%	-1.2	·	·	-0.9	-1.3
COC(=O)/C=C1\SC(=NC(=O)c2cccc([N+](=O)[O-])c2)NC1=O	0.65	·	5.3	-0.7	i	-0.5	-1.9
